# TAR Tat displ – HIV-1 TAR-Tat binding disruption | HIV-1 TAR RNA, Tat peptide displacement FRET; hits give high values | z-score (test concentration not listed) | hit rate 0.6% among 100,000 | AID 1259389;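 further: score is relative to mean and SD of negative controls; some compounds called inactive have numbers as strong as hits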
# CDC25B CDK2 inh – human CDC25B-CDK2/CyclinA binding inhibition. P30305+P24941. HTRF CDC25B-CDK2/CyclinA binding, anti-His/anti-Flag; hits give high values. z-score (concentration not given with the values). hit rate 0.72% among 94,000. AID 1259370;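 further: score is relative to mean and SD of negative controls; strong numbers were not always called active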
# Starred values were filed as active, the others as inactive; x = no result given.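 How the source made its calls: active means z-score from 3 up in half or more of its runs; inactive means the rest.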
SMILES,TAR Tat displ,CDC25B CDK2 inh
CCC(C(=O)Nc1c(C)nc2ccccn2c1=O)c1ccccc1 (centres undefined),0.53,x
O=C1NCCN1Cc1ccccc1F,2,x
OCCn1c(SC2CCCCC2)nc2ccccc21,-0.98,0.91
O=C(c1ccco1)c1cn(CCOc2ccccc2Cl)c2ccccc12,2.6,0.3
Cc1ccc2nc(SCc3nc4nc(C)cc(C)n4c3Br)[nH]c2c1,-2.1,x
Cc1nc(S(=O)(=O)NCCNc2ccc(-c3ccc(F)cc3)nn2)cn1C,x,-1.1
COc1ccc(N2CCN(c3c(C)c(C)nc4ncnn34)CC2)cc1,0.81,x
Cc1ccc(-n2c(C)c(C)c3c2ncn2nc(-c4ccccc4O)nc32)cc1,1.9,0.41
O=C1CCC(=O)N1c1ccc(S(=O)(=O)Oc2cccc(C(F)(F)F)c2)cc1,x,-0.2
Cn1c(=O)c2c(n(C)c1=O)n(CC(=O)NC(C)(C)C)c(=O)n2C,1.7,-0.36
CC1CCN(C(=O)c2cc3c(s2)-c2ccc(Cl)cc2S(=O)(=O)C3)CC1,0.28,-5.9
Cc1nc(-c2ccc(S(=O)(=O)NCc3cccnc3)cc2)co1,1.2,x
COCCNC(=O)c1cc(C)no1,-0.65,-1.3
Cn1c(=O)n(C)c2cc(CNCCCSc3nnnn3-c3ccccc3)ccc21,-0.35,1.1
O=C(Cn1c(=O)oc2cc(S(=O)(=O)N3CCCC3)ccc21)Nc1ccc(F)c(Cl)c1,0.97,0.54
O=C(CN1CCSc2ccccc21)N1CCN(c2ccc(Cl)cc2)CC1,-0.15,x
CC(Oc1ccccc1Cl)C(=O)N(Cc1ccco1)C1CCS(=O)(=O)C1 (centres undefined),0.53,-0.4
CC1Cc2ccccc2N1C(=O)c1cc(-c2ccncc2)n[nH]1 (centres undefined),2.9,x
Cn1c(=O)c2c(nc(CN3CCOCC3)n2Cc2cccc3ccccc23)n(C)c1=O,-0.3,-1.1
CC(C)CCOc1cccc(C2c3c(oc4ccccc4c3=O)C(=O)N2c2nncs2)c1 (centres undefined),0.83,0.09
CN1C(=O)Cc2cc(S(=O)(=O)CCC(=O)Nc3ccc(F)cc3)ccc21,0.94,x
Fc1ccccc1OCc1nc(-c2ccccc2)no1,-7.4,0.97
CNC(=O)c1c(NC(=O)COc2ccccc2)sc2c1CCC2,1,x
CCOC(=O)COc1c(Br)cc(/C=C(\C#N)c2nn(CCO)c(N)c2C#N)cc1OCC,x,1
O=C(COCc1cc(-c2cccs2)on1)NCCc1c[nH]c2ccccc12,1.3,x
CC1CSc2ccc(S(=O)(=O)Nc3ccc(C(C)C)cc3)cc2NC1=O (centres undefined),-0.93,x
Fc1cccc(Cl)c1Cn1cccc1C1=NC(c2ccccc2)CO1 (centres undefined),x,-1.6
Cn1c(=O)c2c(nc(CN3CCN(c4ccc(F)cc4)CC3)n2Cc2ccc(F)cc2)n(C)c1=O,-0.55,0.44
O=C(CCS(=O)(=O)c1ccc2c(c1)NC(=O)CO2)Nc1ccc(Br)cc1F,-1.5,x
COCCCNc1nc2c(S(=O)(=O)c3ccc(C)c(C)c3)nnn2c2ccccc12,-0.58,-0.43
Cc1scc(CN2CCN(C(=O)c3ccco3)CC2)c1C,0.66,x
CCOc1ccc(NS(=O)(=O)c2cc3c4c(c2)CC(=O)N4CCC3)cc1,10,x
Nc1ccccc1Sc1nc(Cl)nn1Cc1ccc(F)cc1,-1.6,-1.3
CCn1c(=O)sc2cc(NC(=O)Cc3cccs3)ccc21,0.42,x
O=C(Nc1cccc(-c2nnco2)c1)c1ccc([N+](=O)[O-])cc1,x,0.01
CC(C)CCNC(=O)c1cc2c(s1)-c1ccccc1S(=O)(=O)C2,0.07,-3.1

# One compound at a time, as listed above. Order of screens: TAR Tat displ, CDC25B CDK2 inh
# `CC1CSc2ccc(S(=O)(=O)Nc3ccc(C(C)C)cc3)cc2NC1=O` (centres undefined) in the list: -0.93, x
# `Cc1scc(CN2CCN(C(=O)c3ccco3)CC2)c1C` in the list: 0.66, x

# More compounds.
SMILES,TAR Tat displ,CDC25B CDK2 inh
CCC1CN2C=Nc3oc(C)c(C(=O)O)c3C2=N1 (centres undefined),1.1,0.97
Cc1ccc(-c2c(NCc3ccc(Cl)cc3)c(=O)c2=O)cc1C,2,x
O=C1N(c2ccc(F)cc2)C2CS(=O)(=O)CC2N1c1ccc(Br)cc1 (centres undefined),1.9,-1.6
Cc1ccc(OCCCSc2nc3c(c(=O)[nH]2)CCC3)cc1,0.93,-0.68
Cn1c(=O)c(-c2ccccc2N)nc2ccccc21,0.57,-0.11
Cn1c(=O)c2c(-c3ccc(C(C)(C)C)cc3)n(C3CCCC3)cc2n(C)c1=O,1.1,-0.32
CCOC(=O)c1cnc(SC)nc1NC(=O)Nc1ccc(F)cc1,2,x
S=C1NC2=C(CCc3ccccc32)C(c2ccccc2)N1 (centres undefined),x,-0.88
O=C(Nc1nc(-c2ccc(Br)cc2)ns1)c1cccs1,-0.23,-0.03
N#Cc1nc(/C=C/c2ccc(F)cc2)oc1NCc1ccccc1,0.83,-0.78
Cc1ccc(C)c(C(=O)CC2(O)C(=O)Nc3ccc(C)cc32)c1 (centres undefined),0.61,-1.7
Cc1nn(CC(=O)NC2CCCCC2)c(=O)c2cc3cc(F)ccc3n12,-0.33,-2.4
O=C(NCc1ccc(Cl)cc1)c1cc2cc3ccc(Cl)cc3nc2o1,-1.4,x
c1ccc(Cc2nc(NCc3cccnc3)c3c4c(sc3n2)CCCC4)cc1,x,-2.3
Cc1cccc(CCN2CCC(C(=O)c3ccc(NS(C)(=O)=O)cc3)CC2)n1,1.7,x
Cc1ccc2[nH]c3c(=O)n(CC(=O)O)cnc3c2c1,-0.07,-2.4
CCCSc1ncc(Cl)c(C(=O)Nc2sc3c(c2C(=O)OCC)CCC3)n1,1.2,-1.7
COCCn1c(CCC(=O)NCc2ccco2)nc2cccnc21,-0.55,-0.52
Cc1cc(C)c(NC(=O)CSc2nc3c(c(=O)[nH]2)CCC3)c(C)c1,1.6,-0.55
CC1=C(C(N)=O)C(c2ccc3c(c2)OCO3)n2nc(-c3cccs3)nc2N1 (centres undefined),x,-0.8
O=C(Nc1cccc(Cl)c1)N1CCN2CCCCC2C1 (centres undefined),-0.56,-1.3
COc1ccc(-n2ccn3c(CCC(=O)NCC4CCCO4)nnc3c2=O)cc1 (centres undefined),-1.2,x
Cc1ccc(CNC(=O)c2ccc3c(=O)[nH]c4c(C(=O)NC(C)C)sc(=S)n4c3c2)cc1,2.6,x
Cc1cc(C)c(N(C)C(=O)[C@@H]2[C@H]3C[C@H]4[C@@H]2C(=O)O[C@H]4C3)c(C)c1,-1,-1.4

# Retrieved by compound from the entries so far, 3 records:
SMILES,TAR Tat displ,CDC25B CDK2 inh
O=C(NCc1ccc(Cl)cc1)c1cc2cc3ccc(Cl)cc3nc2o1,-1.4,x
Cc1ccc(CNC(=O)c2ccc3c(=O)[nH]c4c(C(=O)NC(C)C)sc(=S)n4c3c2)cc1,2.6,x
Cc1cccc(CCN2CCC(C(=O)c3ccc(NS(C)(=O)=O)cc3)CC2)n1,1.7,x

# (continued)
SMILES,TAR Tat displ,CDC25B CDK2 inh
COc1ccc(C(O)(c2ccccc2)C(CN2CCCC2)c2ccccc2)cc1 (centres undefined),0.07,-1.5
CC1CCN(c2nc3ccccc3nc2SCC(=O)N2CCN(C3CCCC3)CC2)CC1,1.8,-1.9
CNc1nc(NCCc2cccs2)c2cnn(C)c2n1,0.73,x
O=C(Nc1ccccc1Cl)c1cnc2sc(N3CCOCC3)nn2c1=O,0.75,x
Cn1c(SCC(=O)N/N=C/c2ccc3c(c2)OCO3)nnc1-c1ccccc1,x,1.1
CCN(CC)S(=O)(=O)c1ccc2c(c1)N(CC(=O)N1CCCCCC1)C(=O)CS2,x,-0.04
Cc1nc(NC(=O)Nc2ccc(Cl)cc2)sc1C,0.55,-2.8
COc1ccc2nc(NC3=NC(c4ccccc4)CC(=O)N3)nc(C)c2c1 (centres undefined),x,-0.13
O=C(O)c1nccnc1-c1nc2ccccc2c(=O)[nH]1,x,-0.83
Cc1ccc(-c2noc3c(=O)[nH]c(C)nc23)cc1,1.3,0.96
Clc1nc(NCCN2CCOCC2)nc(Nc2ccc3c(c2)OCO3)n1,1.6,1.4
O=C(Nc1nn2c(-c3ccccc3)nnc2s1)c1ccccc1F,0.98,-1.7

# Compounds listed so far with a thiophene ring, fused or not:
SMILES,TAR Tat displ,CDC25B CDK2 inh
CC1CCN(C(=O)c2cc3c(s2)-c2ccc(Cl)cc2S(=O)(=O)C3)CC1,0.28,-5.9
CNC(=O)c1c(NC(=O)COc2ccccc2)sc2c1CCC2,1,x
O=C(COCc1cc(-c2cccs2)on1)NCCc1c[nH]c2ccccc12,1.3,x
Cc1scc(CN2CCN(C(=O)c3ccco3)CC2)c1C,0.66,x
CCn1c(=O)sc2cc(NC(=O)Cc3cccs3)ccc21,0.42,x
CC(C)CCNC(=O)c1cc2c(s1)-c1ccccc1S(=O)(=O)C2,0.07,-3.1
O=C(Nc1nc(-c2ccc(Br)cc2)ns1)c1cccs1,-0.23,-0.03
c1ccc(Cc2nc(NCc3cccnc3)c3c4c(sc3n2)CCCC4)cc1,x,-2.3
CCCSc1ncc(Cl)c(C(=O)Nc2sc3c(c2C(=O)OCC)CCC3)n1,1.2,-1.7
CC1=C(C(N)=O)C(c2ccc3c(c2)OCO3)n2nc(-c3cccs3)nc2N1 (centres undefined),x,-0.8
CNc1nc(NCCc2cccs2)c2cnn(C)c2n1,0.73,x

# New compounds follow
SMILES,TAR Tat displ,CDC25B CDK2 inh
O=C(Cn1cc2c(n1)CCCC2)NCCCN1CCCCCC1,x,-0.14
CC(C)(C)NC(=O)NCC(c1ccc[nH]1)C(F)(F)F (centres undefined),x,-1
CC(CCc1ccco1)NC(=O)c1nn(C)c2c1COc1ccccc1-2 (centres undefined),0.57,0
CC(C)(C)C(=O)Cn1c(=O)n(-c2ccc(F)cc2F)c(=O)c2sccc21,x,0.1
Cn1nc(C(=O)N2CCN(c3ncccn3)CC2)c2c1-c1ccccc1SC2,1.2,-2.9
Cn1cnc(S(=O)(=O)NCc2cccnc2)c1,2,x
Cc1cccc(N(C)S(=O)(=O)c2cc(-c3cnc(C4CC4)o3)ccc2C)c1,0.57,x
COc1ccccc1Nc1nc(N)nc(CSc2nncn2C)n1,0.43,-1.2
CC1CCN(C(=O)Cn2cc(C(=O)C3CCCCC3)c3ccccc32)CC1,0.88,-0.96
CC(=O)C1C(c2ccc(Br)cc2)c2c(noc2C)CC1(C)O (centres undefined),x,-1.4
Cc1nn(S(=O)(=O)c2cccs2)c(C)c1S(=O)(=O)N1CCCC(C)C1 (centres undefined),1.9,x
CSc1nc(C2CC2)nc(C2CC2)c1C#N,x,-1.2
CCCCN(C(=O)c1cc2c(=O)n3cccc(C)c3nc2n1C)c1ccccc1,1.9,x
COc1ccc2nc(C)cc(N3CCOCC3)c2c1,1.3,-1.3
N#CC1=C(N)Oc2oc3ccccc3c(=O)c2C1c1cc(F)ccc1Br (centres undefined),x,0.43
COc1cc(Cl)c(NC(=O)c2cccc(C(F)(F)F)c2)c(OC)c1,x,-1
CSc1nsc(SCC(=O)N2CCCC2)n1,0.68,-0.76
CN(C)C(=O)c1c(NC(=O)c2cccs2)sc2c1CCCCC2,x,0.06
CNC(=O)C1CCN(C(=O)N2CC(C)Oc3ccc(Cl)cc32)CC1 (centres undefined),1.8,x
CC(=O)N1CCOc2cc(S(=O)(=O)Nc3cc(F)ccc3F)c(Cl)cc21,1.5,x
CCOC(=O)c1c(NC(=S)Nc2cc(C)nn2-c2ccccc2)sc(C)c1C,x,-1.6
Cc1nnc(-c2ccc(C(F)(F)F)cn2)nc1C,x,-0.65
O=C(Cn1cnc(S(=O)(=O)N2CCOCC2)c1)N1CCCc2ccccc21,0.32,x
O=c1[nH]c(=O)n([C@H]2C[C@H](O)[C@@H](CO)O2)cc1Br,x,-0.77
O=C(CCCn1c(=O)[nH]c2cc(Cl)ccc2c1=O)N1CCN(Cc2ccc3c(c2)OCO3)CC1,0.05,0.32
Cc1ccc(-c2nnc3sc(Cc4ccccc4)nn23)cc1,2.9,-0.49
COc1ccc(NC(=O)CSc2nc3ccccc3c3nc4ccccc4n23)c(OC)c1,0.58,x
O=C(NCc1ccc2c(c1)OCO2)c1nc(-n2cnnc2)ccc1Br,3.1,x
CC1CCN(S(=O)(=O)c2ccc3c(c2)NC(=O)C(C)S3)CC1 (centres undefined),1.8,x
COc1cc2c(cc1OC)-c1cc(=Nc3c(C)cc(C)cc3C)n(C)c(=O)n1CC2,x,-1.7
CC(C)CCNC(=O)c1cnc(N2CCOCC2)nc1,1.6,x
O=C(O)CCCC(=O)Nc1ccccn1,-0.75,-1.8
CCCN1C(SCC(=O)NCc2ccco2)=NS(=O)(=O)c2ccccc21,3,x
O=S(=O)(c1cnc[nH]1)N1CCCC1c1ccc(Cl)cc1 (centres undefined),1.9,-0.36
CCc1nc2nc(C)cc(Nc3cc(Cl)ccc3OC)n2n1,-0.1,-1.1
CCOC(=O)C1=C(C)NC2=C(C(=O)CC(C)(C)C2)C1c1ccc(OC)cc1 (centres undefined),-0.1,-1.7
COc1ccc2nc(NC(=O)CSc3ccccn3)sc2c1,x,0.48
O=C(NCc1ccccc1)C(CSCc1ccccc1)N1Cc2ccccc2C1=O (centres undefined),2.6,-1.6
CCc1ccc(C(Nc2ccccn2)c2ccc3cccnc3c2O)cc1 (centres undefined),0.28,0.06
Cc1ccc(-c2nn(-c3ccccc3)cc2C2CC(c3ccccc3)=NN2S(C)(=O)=O)cc1 (centres undefined),2,-0.18
O=C(OCc1cc(=O)n2c(-c3ccccc3)csc2n1)c1cccs1,-0.44,x
CCCc1nn2c(=O)cc(CSc3n[nH]c(-c4ccc(C)cc4)n3)nc2s1,0.37,x
COc1cnc(CSc2nc(C)cs2)cc1OCC(=O)Nc1ccc2c(c1)OCO2,0.53,x
CC1Cc2nc(SCC(=O)N3CCCCC3)n(-c3ccccc3)c(=O)c2S1 (centres undefined),-6.7,-1.4
COc1ccc2[nH]c(=O)c(CN(c3ccc(C)c(C)c3)S(C)(=O)=O)cc2c1,0.08,-1.6
O=C(C1CCC1)N1CCc2cc(-c3ccsc3)ccc21,0.78,-1.1
